# Env fusion inh = inhibitors of HIV-1 Env-driven cell-cell fusion, primary screen, HeLa-JRFL effector, CEM21 target cells, luciferase. inhibition, % at 12.3 µM. actives 1.1% (n = 360,000). AID 651610, 2012;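 active = mean replicate inhibition score of at least 50 and every replicate individually at or above 50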;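 also: 0% = plate neutral controls and 100% = maraviroc near 300 nM; one replicate is shown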
# UUG fidelity = modulators of yeast start codon fidelity, primary screen, whole organism, S. cerevisiae, single point, plate reader. S. cerevisiae UUG-firefly luciferase reporter, luminescence/redox ratio. activity score, % at 18.7 µM. actives 0.13% (n = 350,000). AID 602363, 2012;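 active = replicate mean at a twofold rise or more, about +100% in these data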;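 also: firefly luciferase made from a UUG start codon reports start codon fidelity; reporter light over untreated wells divided by growth signal over untreated wells; some hits fall short of that in this replicate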
# * = called active by the depositor; & = joins results of further samples; [ ] = another dose, or the depositor's remark. These rows are one share of the data (hit frequency here may not be typical).
SMILES,Env fusion inh,UUG fidelity
C[C@@H]1CN([C@H](C)CO)C(=O)c2cc(-c3ccc(C#N)cc3)cnc2O[C@H]1CN(C)Cc1cncnc1,6.0[16.7 µM],-2.4
CS(=O)(=O)Nc1ccc2c(c1)[C@H]1C[C@H](CC(=O)NCc3ccncc3)O[C@H](CO)[C@H]1O2,-21.0[16.7 µM],3.4
C[C@@H]1CCCCO[C@H](CN(C)Cc2ccccc2)[C@H](C)CN([C@H](C)CO)C(=O)c2cc(NC(=O)Nc3ccccc3)ccc2O1,1.5[16.7 µM],22.2
CCCC(=O)Nc1ccc2c(c1)OC[C@@H](C)N(CCC(F)(F)F)C[C@H](C)[C@H](OC)CN(C)C2=O,-17.6[16.7 µM],12.7
CC(C)NC(=O)N(C)C[C@H]1Oc2ncc(C#CC3(O)CCCC3)cc2C(=O)N([C@@H](C)CO)C[C@H]1C,1.9[16.7 µM],6.9
C[C@@H]1CN([C@@H](C)CO)C(=O)c2cc(NC(=O)c3ccccc3)ccc2O[C@@H](C)CCCCO[C@@H]1CN(C)S(=O)(=O)c1cn(C)cn1,18.2[16.7 µM],-6.4
CC(=O)Nc1ccc2c(c1)C(=O)N(C)[C@@H]1CC[C@H](CC(=O)NCCCN3CCOCC3)O[C@@H]1CO2,11.6[16.7 µM],-5.6
C[C@@H]1CCCCO[C@H](CN(C)CC2CCCCC2)[C@H](C)CN([C@@H](C)CO)C(=O)c2cc(NC(=O)Nc3ccc(C(F)(F)F)cc3)ccc2O1,29.6[16.7 µM],12.6
C[C@H]1CN([C@@H](C)CO)C(=O)Cc2cc(NS(=O)(=O)c3cccs3)ccc2O[C@H]1CN(C)Cc1ccc(-c2ccccc2)cc1,-18.7[16.7 µM],1.7
CCCN(C)C[C@@H]1Oc2cc(C#Cc3ccc(F)cc3)ccc2S(=O)(=O)N([C@@H](C)CO)C[C@H]1C,14.4[16.7 µM],4.3

# Record cards, from the list above:
# C[C@H]1CN([C@@H](C)CO)C(=O)Cc2cc(NS(=O)(=O)c3cccs3)ccc2O[C@H]1CN(C)Cc1ccc(-c2ccccc2)cc1 across the screens: Env fusion inh: -18.7[16.7 µM]; UUG fidelity: 1.7
# CC(=O)Nc1ccc2c(c1)C(=O)N(C)[C@@H]1CC[C@H](CC(=O)NCCCN3CCOCC3)O[C@@H]1CO2 across the screens: Env fusion inh: 11.6[16.7 µM]; UUG fidelity: -5.6

# More results:
SMILES,Env fusion inh,UUG fidelity
C[C@@H]1CN([C@@H](C)CO)C(=O)Cc2cc(NC(=O)NC3CCCCC3)ccc2O[C@H]1CN(C)C(=O)NC1CCCCC1,13.4[16.7 µM],2.7
Cc1noc(C)c1S(=O)(=O)Nc1ccc2c(c1)CC(=O)N([C@H](C)CO)C[C@H](C)[C@@H](CN(C)Cc1ccncc1)O2,-2.2[16.7 µM],-7.1
COc1ccc(C#Cc2ccc3c(c2)O[C@H](CN(C)C(=O)NC2CCCCC2)[C@@H](C)CN([C@H](C)CO)S3(=O)=O)cc1,0.5[16.7 µM],-13.1
C[C@H](CO)N1C[C@H](C)[C@H](CN(C)C(=O)C2CCCCC2)OCCCC[C@H](C)Oc2ccc(NC(=O)C3CCCCC3)cc2C1=O,-27.4[16.7 µM],4.4
C[C@@H]1CN([C@H](C)CO)C(=O)c2cc(NS(=O)(=O)c3cn(C)cn3)ccc2O[C@H]1CN(C)CC1CC1,-1.7[16.7 µM],10.9
C[C@@H]1CN([C@@H](C)CO)C(=O)Cc2cc(NC(=O)CCCN(C)C)ccc2O[C@H]1CN(C)S(=O)(=O)c1cccs1,5.1[16.7 µM],22.3
C[C@@H]1CN([C@H](C)CO)C(=O)c2cc(NC(=O)C3CCCCC3)ccc2O[C@@H](C)CCCCO[C@H]1CN(C)C(=O)Nc1ccccc1,16.1[16.7 µM],-10.7
C[C@H]1CN([C@@H](C)CO)C(=O)c2cc(-c3cncnc3)cnc2O[C@@H]1CN(C)C(=O)Nc1ccc2c(c1)OCO2,-3.2&-4.9[16.7 µM],-10.6
C[C@H]1CN([C@@H](C)CO)S(=O)(=O)c2ccc(C3=CCCCC3)cc2O[C@H]1CN(C)Cc1cccnc1,-2.7[16.7 µM],-10.4
COc1ccc(S(=O)(=O)N(C)C[C@H]2Oc3ccc(NS(=O)(=O)c4ccc(C)cc4)cc3CC(=O)N([C@@H](C)CO)C[C@H]2C)cc1,6.7[16.7 µM],-4.2

# Pulled by structure from above (three):
SMILES,Env fusion inh,UUG fidelity
CCCN(C)C[C@@H]1Oc2cc(C#Cc3ccc(F)cc3)ccc2S(=O)(=O)N([C@@H](C)CO)C[C@H]1C,14.4[16.7 µM],4.3
CCCC(=O)Nc1ccc2c(c1)OC[C@@H](C)N(CCC(F)(F)F)C[C@H](C)[C@H](OC)CN(C)C2=O,-17.6[16.7 µM],12.7
COc1ccc(S(=O)(=O)N(C)C[C@H]2Oc3ccc(NS(=O)(=O)c4ccc(C)cc4)cc3CC(=O)N([C@@H](C)CO)C[C@H]2C)cc1,6.7[16.7 µM],-4.2

# Continued:
SMILES,Env fusion inh,UUG fidelity
CCCNC(=O)N1[C@@H](C#N)[C@@H](c2ccc(-c3ccc(C(=O)N(C)C)cc3)cc2)[C@@H]1CO,17.0[16.7 µM],4.1
C[C@H](CO)N1C[C@H](C)[C@@H](CN(C)C(=O)Nc2ccc(F)cc2)Oc2ncc(C#C[C@@H](C)O)cc2C1=O,0.9[16.7 µM],3.3
C[C@H](O)C#Cc1ccc2c(c1)O[C@@H](CN(C)Cc1ccncc1)[C@@H](C)CN([C@H](C)CO)S2(=O)=O,16.0[16.7 µM],-5.4
CC(C)NC(=O)Nc1ccc2c(c1)C(=O)N([C@@H](C)CO)C[C@H](C)[C@H](CN(C)Cc1ccc(C(F)(F)F)cc1)OCCCC[C@H](C)O2,8.4[16.7 µM],15.9
C[C@H](CO)N1C[C@H](C)[C@@H](CN(C)C(=O)c2ccccn2)Oc2ncc(-c3cccc(F)c3)cc2C1=O,12.4[16.7 µM],1.3
CCCC#Cc1cnc2c(c1)C(=O)N([C@H](C)CO)C[C@@H](C)[C@H](CN(C)S(=O)(=O)c1cn(C)cn1)O2,1.5[16.7 µM],0.0
CO[C@@H]1CN(C)C(=O)c2ccc(NC(C)=O)cc2OC[C@H](C)N(C(=O)C2CCC2)C[C@H]1C,3.3[16.7 µM],18.2
C[C@@H]1CN([C@H](C)CO)C(=O)c2cc(NS(=O)(=O)c3cn(C)cn3)ccc2O[C@@H](C)CCCCO[C@@H]1CN(C)S(=O)(=O)c1cn(C)cn1,-0.8[16.7 µM],2.8
COc1cccc(NC(=O)N[C@@H]2C=C[C@H](CC(=O)N3CCCCC3)O[C@H]2CO)c1,-23.0[16.7 µM],5.7
C[C@H](CO)N1C[C@H](C)[C@@H](CN(C)S(=O)(=O)c2ccccc2)OCCCC[C@H](C)Oc2ccc(NC(=O)CCCN(C)C)cc2C1=O,-69.0[16.7 µM],71.4
Cc1cccc(S(=O)(=O)N[C@H]2CC[C@@H](CCn3cc(-c4ccccn4)nn3)O[C@@H]2CO)c1,-2.9[16.7 µM],-7.8
Cc1noc(C)c1NC(=O)Nc1ccc2c(c1)C(=O)N([C@H](C)CO)C[C@H](C)[C@@H](CN(C)C(=O)Nc1ccccc1)OCCCC[C@@H](C)O2,0.1[16.7 µM],4.7
CNC[C@@H]1Oc2ccc(NC(=O)c3ccncc3)cc2C(=O)N([C@@H](C)CO)C[C@H]1C,-20.4[16.7 µM],-11.1
Cc1ccccc1S(=O)(=O)N(C)C[C@H]1OCc2cnnn2CCCC(=O)N([C@H](C)CO)C[C@@H]1C,-14.9,-3.6
Cc1noc(C)c1S(=O)(=O)Nc1cccc2c1O[C@@H](CN(C)CC1CCCCC1)[C@@H](C)CN([C@@H](C)CO)C2=O,2.5[16.7 µM],15.1
COc1ccc(C#Cc2cnc3c(c2)C(=O)N([C@@H](C)CO)C[C@H](C)[C@H](CN(C)C(C)=O)O3)cc1,6.4[16.7 µM],5.7
CO[C@@H]1CN(C)C(=O)c2cc(NC(C)=O)ccc2OC[C@@H](C)N(C(=O)CN(C)C)C[C@@H]1C,3.2[16.7 µM],-2.4
C[C@H](CO)N1C[C@H](C)[C@H](CN(C)CC2CC2)Oc2c(NS(=O)(=O)c3cn(C)cn3)cccc2C1=O,-4.7[16.7 µM],16.3
C[C@H](CO)N1C[C@H](C)[C@@H](CN(C)Cc2ccc(C(=O)O)cc2)OCCCC[C@H](C)Oc2ccc(NC(=O)Nc3ccc(C(F)(F)F)cc3)cc2C1=O,2.4[16.7 µM],-5.1
C[C@H](CO)N1C[C@H](C)[C@@H](CN(C)C(=O)c2ccncc2)Oc2ncc(C#CC3CCCCC3)cc2C1=O,-6.4[16.7 µM],-14.2
COc1ccc(-c2cnc3c(c2)C(=O)N([C@H](C)CO)C[C@H](C)[C@H](CN(C)C(=O)Nc2cccc4ccccc24)O3)cc1,2.6[16.7 µM],14.7
COc1ccc(S(=O)(=O)Nc2cccc3c2O[C@H](CN(C)Cc2ccc(C(F)(F)F)cc2)[C@H](C)CN([C@@H](C)CO)C3=O)cc1,18.4[16.7 µM],19.0
O=C(Cc1ccccn1)N[C@H]1C=C[C@@H](CC(=O)N2CCCCC2)O[C@@H]1CO,6.1[16.7 µM],-11.7
O=C(N[C@H]1CC[C@@H](CCNS(=O)(=O)c2ccc(F)cc2)O[C@H]1CO)c1cnccn1,-0.6[16.7 µM],-2.5
COCC#Cc1cnc2c(c1)C(=O)N([C@@H](C)CO)C[C@@H](C)[C@@H](CN(C)C(=O)CCN1CCCCC1)O2,-8.5[16.7 µM],4.1
CN(C)C(=O)C[C@H]1CC[C@H](NC(=O)Nc2cccc(F)c2)[C@H](CO)O1,-1.1[16.7 µM],-14.3
O=C(C[C@H]1C[C@H]2c3cc(NC(=O)C4CCOCC4)ccc3O[C@H]2[C@@H](CO)O1)NCc1ccccc1F,25.3[16.7 µM],-9.9
C[C@H](CO)N1C[C@H](C)[C@@H](CN(C)C(=O)Nc2ccccc2)Oc2c(NC(=O)c3ccc(-c4nccs4)cc3)cccc2C1=O,-14.3[16.7 µM],0.7
C[C@@H]1CN([C@@H](C)CO)S(=O)(=O)c2ccc(C#CCN(C)C)cc2O[C@H]1CN(C)C(=O)C1CC1,-15.4[16.7 µM],13.1
Cc1ccc(S(=O)(=O)Nc2ccc3c(c2)C(=O)N([C@@H](C)CO)C[C@H](C)[C@@H](CN(C)C(=O)Nc2c(C)noc2C)O3)cc1,-18.0[16.7 µM],-9.1
CC(C)CC#Cc1cnc2c(c1)C(=O)N([C@H](C)CO)C[C@H](C)[C@H](CN(C)S(=O)(=O)c1ccccc1)O2,-6.9[16.7 µM],-6.8&-0.5
C[C@@H]1CN([C@@H](C)CO)C(=O)Cc2cc(NC(=O)CCC(F)(F)F)ccc2O[C@H]1CN(C)C(=O)Nc1cccc2ccccc12,-11.1[16.7 µM],-10.4
Cc1noc(C)c1NC(=O)N(C)C[C@H]1Oc2ccc(NC(=O)Nc3ccc4c(c3)OCO4)cc2CC(=O)N([C@@H](C)CO)C[C@@H]1C,17.6[16.7 µM],8.8
C[C@H](CO)N1C[C@H](C)[C@H](CN(C)Cc2ccccc2)OCCCC[C@H](C)Oc2ccc(NS(=O)(=O)c3cn(C)cn3)cc2C1=O,-12.0[16.7 µM],-3.9
Cc1ccc(S(=O)(=O)Nc2cccc3c2O[C@@H](CN(C)S(=O)(=O)c2cccs2)[C@H](C)CN([C@H](C)CO)C3=O)cc1,11.3[16.7 µM],-2.4
Cc1cccc(S(=O)(=O)N[C@H]2CC[C@@H](CCNC(=O)CCN3CCCCC3)O[C@H]2CO)c1,6.8[16.7 µM],-2.1
C[C@@H]1CCCCO[C@@H](CN(C)C(=O)c2ccncc2)[C@@H](C)CN([C@H](C)CO)C(=O)c2cc(NC(=O)C3CCCCC3)ccc2O1,-8.2[16.7 µM],-0.1
C[C@@H]1CN([C@H](C)CO)C(=O)c2cc(NC(=O)CCCN(C)C)ccc2O[C@H]1CN(C)S(=O)(=O)c1cn(C)cn1,3.2[16.7 µM],-10.8
C[C@@H]1CN([C@@H](C)CO)C(=O)c2cccc(NC(=O)c3nc4ccccc4s3)c2O[C@H]1CN(C)S(C)(=O)=O,15.7[16.7 µM],8.8
COc1ccc(CN(C)C[C@@H]2OCCCC[C@@H](C)Oc3ccc(NS(=O)(=O)c4ccccc4)cc3C(=O)N([C@H](C)CO)C[C@@H]2C)cc1,-35.4[16.7 µM],-0.9
C[C@@H]1CCCCO[C@H](CN(C)C(=O)c2ccccc2)[C@@H](C)CN([C@@H](C)CO)C(=O)c2cc(NC(=O)CCC(F)(F)F)ccc2O1,-14.2[16.7 µM],7.3
O=C(C[C@@H]1C[C@H]2c3cc(NS(=O)(=O)c4ccc(F)cc4)ccc3O[C@H]2[C@H](CO)O1)NCc1ccccc1F,-11.8[16.7 µM],72.0
COc1ccc(S(=O)(=O)N(C)C[C@@H]2Oc3ccc(NC(=O)Nc4ccc5c(c4)OCO5)cc3C(=O)N([C@@H](C)CO)C[C@H]2C)cc1,4.2[16.7 µM],-17.4
O=C(C[C@@H]1C=C[C@@H](NC(=O)Nc2ccc3c(c2)OCO3)[C@@H](CO)O1)NCc1ccccc1,26.4[16.7 µM],-11.8
C[C@H](CO)N1C[C@H](C)[C@H](CN(C)S(=O)(=O)c2cccc(F)c2)OCc2cnnn2CCCC1=O,-13.5[16.7 µM],10.7
C[C@H](CO)N1C[C@H](C)[C@H](CN(C)C)Oc2ncc(C#CC3(O)CCCC3)cc2C1=O,-2.3[16.7 µM],-2.7
COc1ccc(NC(=O)Nc2ccc3c(c2)C(=O)N([C@@H](C)CO)C[C@H](C)[C@@H](CN(C)C(=O)C2CCCCC2)OCCCC[C@H](C)O3)cc1,-16.2[16.7 µM],-4.6
Cc1ccc(-c2ccc3c(c2)O[C@H](CN(C)C(=O)C2CC2)[C@H](C)CN([C@H](C)CO)S3(=O)=O)cc1,-1.7[16.7 µM],2.4

# Compound activity as filed in PubChem.
